Screening data deposited in PubChem BioAssay by several laboratories.
FGF22 binding: binders of recombinant human FGF22 by thermal shift | AID 651658 | calls only at 9.99 µM | 340,000 tested, 1.5% active | Q9HCT0 | SYPRO orange fluorescence; percent of sucrose octasulfate shift, DMSO zero;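 active = melting point raised past a set limit in the mean and every replicate; three in four hits are not shown here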
Target sequence (Q9HCT0 whole entry, looked up): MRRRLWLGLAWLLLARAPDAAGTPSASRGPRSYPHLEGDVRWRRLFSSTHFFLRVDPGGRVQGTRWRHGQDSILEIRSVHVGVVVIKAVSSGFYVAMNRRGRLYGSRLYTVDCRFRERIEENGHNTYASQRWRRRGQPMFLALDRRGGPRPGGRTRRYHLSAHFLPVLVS
HNF4A DNA FP: change in binding of human HNF4 alpha to DNA; 360,000 tested, 0.3% active; HNF4a-FITC DNA binding, fluorescence polarization, 1 h; P41235; activity change, % at 10 µM; in the data active = activity change above about 30%, passing the limit was not always enough;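 note: controls were the assay level and a saturating level of protein; the project sought stronger binding though the title names inhibitors; some compounds called inactive have numbers as strong as hits; positive values seem to mean higher polarization but the record does not say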
Target sequence (P41235 whole entry, looked up): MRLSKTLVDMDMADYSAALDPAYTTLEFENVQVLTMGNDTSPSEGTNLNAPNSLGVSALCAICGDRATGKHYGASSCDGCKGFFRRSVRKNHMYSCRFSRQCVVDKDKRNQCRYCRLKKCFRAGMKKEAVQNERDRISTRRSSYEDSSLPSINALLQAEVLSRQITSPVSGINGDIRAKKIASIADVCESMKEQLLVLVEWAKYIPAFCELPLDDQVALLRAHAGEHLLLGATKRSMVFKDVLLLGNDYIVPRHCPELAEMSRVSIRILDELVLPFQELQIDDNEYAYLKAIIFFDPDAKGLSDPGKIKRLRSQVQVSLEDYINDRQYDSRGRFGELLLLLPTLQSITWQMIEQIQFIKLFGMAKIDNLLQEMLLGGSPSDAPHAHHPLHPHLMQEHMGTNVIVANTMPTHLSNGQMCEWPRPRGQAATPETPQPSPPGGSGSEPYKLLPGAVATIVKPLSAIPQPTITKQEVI
* hit, by the source's call; i = inactive; . = not tested or not shown.

SMILES	FGF22 binding	HNF4A DNA FP
O=C(Cc1cccs1)NCCS(=O)(=O)N1CCN(c2ccccc2)CC1	i	-1.6
C#CCN(C[C@@H]1[C@@H](OC(=O)NCc2ccccc2F)[C@@H](OC(=O)NCc2ccccc2F)CN(C(=O)OC(C)C)N1C(=O)OC(C)C)S(=O)(=O)c1ccc(C)cc1	i	2.9
Fc1cccc(Cc2c(-c3ccccc3)nc3ccc(Cl)cn23)c1	i	5.9
O=C(CSc1ccc(Cl)cc1)Nc1ccccc1	i	-1.3
CCc1ccc(OC2(C)CCN(CCOc3ccc(C)cc3)C2)cc1 (stereo unspecified)	i	-5.6
Cc1cccc(C)c1NC(=O)C1(C)CN(S(C)(=O)=O)CC(=O)N1C1CC1 (stereo unspecified)	i	4.2
COc1c2c(c(OC)c3ccccc13)[C@]1(OC2)O[C@H](CCO)C[C@H](O)[C@H]1O	i	-0.2
O[C@@H]1CN(Cc2cccs2)[C@@H](c2ccccc2)C[C@H]1n1cc(C2CC2)nn1	i	-1.1
Cc1[nH]c2ccccc2c1C(=O)c1cc([C@H](NC(=O)OC(C)(C)C)C(C)C)sc1N	i	-4.7
CC(C)NC(=O)C1(C)CN(S(C)(=O)=O)CC(=O)N1C1CC1 (stereo unspecified)	i	-0.3
CCOC(=O)N1CCN(C(=O)C[C@@H]2C[C@@]3(C(=O)OCC)CCCC=C3N(Cc3ccc(Cl)cc3Cl)C2=O)CC1	i	-3.2
Cc1noc(C)c1-c1ccc(C(=O)N2CCN(C)CC2)c2occc12	i	1.3
CN(C)C(CNC(=O)c1cccc(S(=O)(=O)N2CCc3ccccc3C2)c1)c1ccccc1 (stereo unspecified)	i	1.8
COC(=O)[C@@]1(Cc2ccc(F)cc2)[C@H]2C(CC(=O)C(=O)N3CCCC3)C(=O)C[C@H]2CN1C(=O)c1ccccc1 (stereo partly specified)	i	0.9
C[C@@H]1CN([C@H](C)CO)C(=O)CCCn2cc(nn2)CO[C@H]1CN(C)C(=O)Nc1ccnc(N2CCOCC2)c1	i	-0.7
COc1ccc(C(C(=O)c2ccccc2)c2ccccc2)cc1 (stereo unspecified)	i	3.1
Cc1ccnc2nc(C(=O)OCC(=O)N(C)C3CCCCC3)nn12	.	4.6
Clc1cccc(-c2nc3ccc(Cl)cn3c2Cc2ccccc2)c1	i	15
C[C@H]1CN([C@@H](C)CO)C(=O)c2cc(Br)cnc2O[C@@H]1CN(C)C(=O)CN(C)C	i	-3.1
COc1cccc(C(=O)NCC[N+](C)(C)C)c1	i	2.0
CCCCn1nnnc1C(c1cc2ccccc2o1)N1CCN(C(=O)OCC)CC1 (stereo unspecified)	i	0.2
COC(=O)c1ccc(N2C(c3ccsc3)=Cc3cc4c(cc3C2CC(=O)c2ccco2)OCO4)cc1 (stereo unspecified)	i	0.1
COc1ccc(C(=O)Cn2c(NCCCO)nc3ccccc32)cc1	i	2.9
CCOC(=O)N1CCN(C(=O)C[C@@H]2C[C@@]3(C(=O)OC)CCCCC=C3N(Cc3ccco3)C2=O)CC1	i	-1.6
CC(C)(C)C(=O)c1c(N)[nH]c(C(=O)c2ccccc2)c1-c1ccccc1Br	i	4.7

The list goes on, starting with the last 7 of the part before.
SMILES	FGF22 binding	HNF4A DNA FP
C[C@H]1CN([C@@H](C)CO)C(=O)c2cc(Br)cnc2O[C@@H]1CN(C)C(=O)CN(C)C	i	-3.1
COc1cccc(C(=O)NCC[N+](C)(C)C)c1	i	2.0
CCCCn1nnnc1C(c1cc2ccccc2o1)N1CCN(C(=O)OCC)CC1 (stereo unspecified)	i	0.2
COC(=O)c1ccc(N2C(c3ccsc3)=Cc3cc4c(cc3C2CC(=O)c2ccco2)OCO4)cc1 (stereo unspecified)	i	0.1
COc1ccc(C(=O)Cn2c(NCCCO)nc3ccccc32)cc1	i	2.9
CCOC(=O)N1CCN(C(=O)C[C@@H]2C[C@@]3(C(=O)OC)CCCCC=C3N(Cc3ccco3)C2=O)CC1	i	-1.6
CC(C)(C)C(=O)c1c(N)[nH]c(C(=O)c2ccccc2)c1-c1ccccc1Br	i	4.7
CCc1ccc([C@H]2[C@@H]3C(=O)C[C@@H]4C(=O)N(C)C(=O)[C@@H]4[C@@H]3CN2S(=O)(=O)c2ccc(C)cc2)cc1	i	1.3
CN1OC[C@@H]2CN(Cc3cc(Cl)cc(Cl)c3)[C@H](c3cccc(-c4ccc(C#N)cc4)c3)C[C@@H]21	i	1.8
CSc1ccc(CN2CCC2(C)C(=O)Nc2cnc3ccccc3c2)cc1 (stereo unspecified)	i	1.9
CCCNC(=O)c1cc2c(c(-c3cccc(-c4ccc(F)cc4)c3)n1)[C@@H](CCO)N(S(=O)C(C)(C)C)C2 (stereo partly specified)	i	6.0
O=C(CSc1nc2c(cnn2-c2ccc(F)cc2)c(=O)[nH]1)N1N=C(c2cccs2)CC1c1ccc(F)cc1 (stereo unspecified)	i	5.7
CCCCn1c(NCc2ccc(OC)cc2O)nc2ccccc21	i	0.8
COc1cccc(CNC(=O)[C@@H]2CCCN2C(=O)[C@H]2CCCCN2)c1	i	1.5
CCOC(=O)C1=C[C@@H](CC)N(S(=O)(=O)c2ccc([N+](=O)[O-])cc2)[C@H]1c1ccccc1	i	-2.9
CCNC(=O)C1(C)CCN(C(=O)c2cc(F)cc(F)c2)C1 (stereo unspecified)	i	-1.9
COC(=O)[C@@]12C[C@@H](CC(=O)N3CCC(c4ccccc4)CC3)C(=O)N(Cc3ccccc3)C1=CCC(C)(C)C2	i	2.4
Clc1cccc(CNc2ccn3nc(-c4ccccc4)cc3n2)c1	i	-0.5
OC(c1ccccc1)c1nc(-c2ccc(Cl)cc2)cs1 (stereo unspecified)	i	1.1
O=NN(CC(=O)NNc1ccccc1)CC(=O)NNc1ccccc1	i	5.9
O=C(Nc1ccc(Oc2ccccc2)cc1)c1ccc2sc([C@H]3C[C@H](O)[C@@H](CO)O3)nc2c1	i	1.2
C[C@@H](NC(=O)[C@@H]1CCCN1C(=O)[C@@H]1CCCN1)c1ccccc1	i	1.7
COc1cc(C)ccc1S(=O)(=O)NC(=O)C1(C)CCN1C(=O)Cc1ccc(C(C)(C)C)cc1 (stereo unspecified)	i	-4.5
COc1ccccc1-c1ccc2c(c1)C(C)(Cc1cccc(F)c1)C(=O)N2 (stereo unspecified)	i	1.5
O=C(NCC1CCCCC1)c1cc(-c2cc(F)ccc2OCC2CCCO2)n[nH]1 (stereo unspecified)	i	0.7
Cc1ccc(S(=O)(=O)N(C)C[C@H]2OCCCC[C@H](C)Oc3ccc(NC(=O)Nc4cccc5ccccc45)cc3C(=O)N([C@@H](C)CO)C[C@H]2C)cc1	i	3.6
CCOC(=O)C1=CCN(S(=O)(=O)c2ccccc2C)C1c1cccc(C)c1 (stereo unspecified)	i	-3.1
O=C(NCCN1CCC(n2c(=O)[nH]c3ccccc32)CC1)c1ccc(F)c(C(F)(F)F)c1	i	-4.7
Cc1ccccc1C(=O)Nc1ccc(S(=O)(=O)NCC2CCCO2)cc1 (stereo unspecified)	i	0.7
OC(c1ccc(Cl)c(Cl)c1)c1ncc(-c2cccc(F)c2)[nH]1 (stereo unspecified)	i	-6.8
COc1ccc(-c2ccc(CN3C(C)C(=O)N(Cc4cn(CC5CCCCC5)nn4)CCS3(=O)=O)cc2)cc1 (stereo unspecified)	i	-5.1
COc1ccc(NC(=O)C2(C)CCN2C(=O)CC2CCCC2)cc1OC (stereo unspecified)	i	0.0

New compounds follow
SMILES	FGF22 binding	HNF4A DNA FP
Clc1ccc2nc(-c3ccccc3)c(Cc3ccccc3)n2c1	i	-1.0
CCCCCCN1C[C@@H](n2cc(COC(=O)c3ccccc3)nn2)[C@H](O)C[C@@H]1c1ccc(OC)cc1	i	0.3
C[C@H](O)CNC(=O)c1[nH]cnc1C(=O)N[C@@H](C)c1ccccc1	i	-2.4
C[C@H]1CN([C@@H](C)CO)C(=O)CCCn2nncc2CO[C@@H]1CN(C)Cc1ccccc1C(F)(F)F	i	-0.9
CC(=O)OC1(C)C=Cc2ccccc2C1=NS(=O)(=O)c1ccccc1 (stereo unspecified)	.	-1.2
Cc1ccc(NC(=O)C2(C)CCN2C(=O)CC(c2ccccc2)c2ccccc2)cc1 (stereo unspecified)	i	3.9
COC(=O)[C@]12CCCCC=C1N(CCc1ccc(OC)c(OC)c1)C(=O)[C@H](CC(=O)N1CCC(c3ccccc3)CC1)C2	i	-1.6
CC1(C(=O)NS(=O)(=O)c2cccs2)CCN1C(=O)C1(c2ccc(Cl)cc2)CC1 (stereo unspecified)	i	0.6
COc1ccc(NC(=O)N(C)C[C@H]2OCCCC[C@@H](C)Oc3ccc(NC(=O)c4ccccc4)cc3C(=O)N([C@H](C)CO)C[C@@H]2C)cc1	i	10.0
O=C(CN1CCN(S(=O)(=O)c2ccc(Br)s2)CC1)N1CCc2ccccc21	i	-0.3
c1ccc2ncc(-n3ccnc3)cc2c1	i	3.0
Nc1ccn([C@@H]2O[C@H](C(=O)N[C@H](CO)c3ccccc3)[C@@H](O)[C@H]2O)c(=O)n1	i	1.3
CCOC(=O)C1=CCN(S(=O)(=O)c2ccccc2F)C1c1cccc(Cl)c1 (stereo unspecified)	i	-2.4
CCC(=NNS(=O)(=O)c1ccc(C)cc1)c1ccccc1	i	2.1
CCCCC(=O)N(C)c1c(C)nc2ccc(C(=O)N3CCCCC3)cn12	i	-1.8
COc1ccc(CN2C[C@@H](CO)O[C@@H](n3cnc4c(N5CCCC5)ncnc43)C2)cc1	i	-1.0
Cc1csc(-c2nc3ccccc3n2C(C(=O)NC(C)(C)C)c2cc3ccccc3o2)c1 (stereo unspecified)	i	-0.6
COc1ccc(Cl)cc1CNC[C@H]1O[C@@H](n2cnc3c(=O)[nH]c(N)nc32)[C@H](O)[C@@H]1O	i	6.0
COc1ccc(-c2csc(C(C)(O)c3cccc(F)c3)n2)cc1 (stereo unspecified)	i	3.4
COCCNC(=O)C1CCCN(C(=O)COCc2ccccc2)CC1 (stereo unspecified)	i	0.5
CCc1ccc([C@H]2[C@@H]3C(=O)C[C@@H]4C(=O)N(CC)C(=O)[C@@H]4[C@@H]3CN2S(=O)(=O)c2ccc(C)cc2)cc1	i	-0.7
C#CCN(C[C@@H]1[C@@H](OC(=O)NC2CC2)[C@@H](OC(=O)NC2CC2)Cn2c(=O)ccc(=O)n21)S(=O)(=O)c1ccc(C)cc1	i	-3.0
COc1ccccc1CNC(=O)C[C@@H]1C[C@H]2c3cc(N(C)C)ccc3O[C@H]2[C@H](CO)O1	i	0.6
Cc1ccc(S(=O)(=O)NC(=O)C2(C)CCN2C(=O)C2(c3ccc(Cl)cc3)CC2)nc1 (stereo unspecified)	i	-2.4
CN(C)C1CN(Cc2cn(Cc3cccc(Cl)c3)nn2)S(=O)(=O)C1 (stereo unspecified)	i	0.4

Record cards (already shown):
Listed for `Clc1ccc2nc(-c3ccccc3)c(Cc3ccccc3)n2c1` = FGF22 binding: i; HNF4A DNA FP: -1.0
Listed for `COc1ccc(-c2csc(C(C)(O)c3cccc(F)c3)n2)cc1` (stereo unspecified) = FGF22 binding: i; HNF4A DNA FP: 3.4

Next section
SMILES	FGF22 binding	HNF4A DNA FP
CC(C)(C)OC(=O)N1CCCN(C(c2ccnc3ccccc23)c2nnnn2-c2ccc3c(c2)OCCO3)CC1 (stereo unspecified)	i	0.8
Cn1c(=O)c2cc(NC(=O)NCCc3ccccc3)ccc2n1Cc1ccccc1	i	-23
C[C@@H]1CN([C@@H](C)CO)C(=O)c2cc(-c3cccnc3)cnc2O[C@H]1CN(C)C(=O)c1cccc(F)c1	i	1.6
CCOC(=O)C1=C(C)OC(=Cc2ccccc2)C1=O	i	12
CN1CCN(C(c2ccccc2)c2nnnn2C(C)(C)C)CC1 (stereo unspecified)	i	2.8
Cc1ccccc1-c1cc2nc(NCCN3CCCC3)n(C)c(=O)c2s1	i	1.7
Cc1nc(C(F)(F)F)ccc1C(=O)N1CCC1(C)C(=O)NS(=O)(=O)c1ccccc1Cl (stereo unspecified)	i	2.5
CN(C)CCC1(c2ccccc2)CCN(C)C1=O (stereo unspecified)	i	-3.5
CN1CCN([C@@H]2CS(=O)(=O)N[C@H]2COCc2ccccc2)CC1	i	-2.6
C/C=C1\NC(=O)[C@H](C)NC(=O)[C@@H](NC(=O)[C@H](Cc2ccc(O)cc2)NC(=O)[C@@H](NC(=O)/C(C)=C/C)C(C)C)[C@@H](C)OC(=O)[C@H](CCCc2ccc(O)cc2)NC(=O)[C@@H](CCC(=O)OC)NC1=O	i	-1.4
O=C(NCc1ccccn1)[C@@H]1CCCN1C(=O)[C@@H]1CCCN1C(=O)c1cccc(Cl)c1	i	-4.8
COCCN1C(=O)CCC1(C)c1nnnn1-c1ccc2ccccc2c1 (stereo unspecified)	i	-2.2
CC(=O)Nc1cccc(-c2ccnc3c2CC(C)(C(=O)Nc2cccc(Oc4ccccc4)c2)O3)c1 (stereo unspecified)	i	-4.0
COc1cccc(-c2cc3nc(NCCOc4ccccc4Cl)n(C)c(=O)c3s2)c1	i	1.1
C[C@@H]1CN([C@@H](C)CO)S(=O)(=O)c2ccc(-c3ccccc3)cc2O[C@@H]1CN(C)Cc1ccccc1C(=O)O	i	-3.0
NC(=O)c1cccc(-c2coc3c(C(=O)NCc4cccnc4)cccc23)c1	i	0.9
CC(=O)Nc1ccc(C(=O)N2CCCC(c3cc(C(=O)NCc4ccccc4)no3)C2)cc1 (stereo unspecified)	i	4.0
COc1ccc(OCCN2CCC(C(=O)NC(c3ccc(Cl)cc3)c3cccnc3)CC2)cc1 (stereo unspecified)	i	4.6
O=C(NCc1ccco1)c1cccc2c(-c3ccc(F)c(F)c3)coc12	i	1.1

This is a subset, so the mix of outcomes need not match the whole.
